# Compound activity (PubChem)
# UUG fidelity – alters start codon recognition fidelity in yeast | AID 602363 | S. cerevisiae UUG-firefly luciferase reporter, luminescence/redox ratio | activity score, % at 18.7 µM | actives 0.13% (n = 350,000);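 active means replicate mean at a twofold rise or more, about +100% in these data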;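 further: firefly luciferase made from a UUG start codon reports start codon fidelity; reporter light over untreated wells divided by growth signal over untreated wells; some hits fall short of that in this replicate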
# Rce1 inhib – inhibitors of yeast Ras-converting enzyme; actives 0.27% (n = 290,000); calls only; Q03530; yeast membranes, quenched prenylated peptide cleavage fluorescence;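 active means fall in fluorescence gain of 50% or more versus controls, with final raw signal at or below 3038400; inconclusive means same 50% fall but final raw signal above 3038400; inactive means fall in fluorescence gain under 50%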;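 further: plate controls were neutral control wells for no effect and wells lacking membranes for full effect; tested at 10 µM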
# eIF4H inh – inhibitors of RNA binding by human eIF4H. eIF4H fluorescence polarization binding assay. inhibition, % at 35 µM. actives 0.94% (n = 290,000). AID 2012;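 active means 50% or more with normal probe brightness, or confirmed in later tests; inconclusive means above 50% with abnormal brightness, or retests that disagree; inactive means below 50% or failed in later tests; about a fifth of its hits are not listed in these tables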;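 further: calls also rest on retests at 20 µM and on dose response follow-up; 0% = protein and probe with vehicle and 100% = probe without protein; strong numbers were not always called active; many hits fall short of the cut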
# MT1-MMP act inh – MT1-MMP (human) activation inhibition; AID 651647; HT1080 RFP-PRO-GFP cells, GFP/RFP ratio fluorescence, overnight; percent of plate control window, DMSO zero; actives 0.061% (n = 360,000); GFP/RFP ratio change, % at 20 µM; P50281;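 active means GFP/RFP ratio change of at least 30% with cell ATP level not reduced by more than half and red fluorescence within 50% of control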; further: strong numbers were not always called active
#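 Test system: HT1080 RFP-PRO-GFP cells; Benchmarks: DMSO and RFP-L50D-GFP cell wells; Timing: cells overnight before dosing, compound overnight, 37 °C, 5% CO2; Compound: one 20 µM compound dose with 1% DMSO; Read-out: GFP/RFP fluorescence ratio.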
# PABP FP inh – blocks human PABP binding to poly(A) RNA | P11940 | inhibition, % at 35 µM | fluorescence polarization | actives 1% (n = 290,000) | AID 2014;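 active means 50% or more with normal probe brightness, or confirmed in later tests; inconclusive means above 50% with abnormal brightness, or retests that disagree; inactive means below 50% or failed in later tests; about a fifth of its hits are not listed in these tables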;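 further: calls also rest on retests at 20 µM and on dose response follow-up; controls were probe without protein and protein plus probe with vehicle; some compounds called inactive have numbers as strong as hits; many hits fall short of the cut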
# Target sequence (P11940 whole entry, looked up): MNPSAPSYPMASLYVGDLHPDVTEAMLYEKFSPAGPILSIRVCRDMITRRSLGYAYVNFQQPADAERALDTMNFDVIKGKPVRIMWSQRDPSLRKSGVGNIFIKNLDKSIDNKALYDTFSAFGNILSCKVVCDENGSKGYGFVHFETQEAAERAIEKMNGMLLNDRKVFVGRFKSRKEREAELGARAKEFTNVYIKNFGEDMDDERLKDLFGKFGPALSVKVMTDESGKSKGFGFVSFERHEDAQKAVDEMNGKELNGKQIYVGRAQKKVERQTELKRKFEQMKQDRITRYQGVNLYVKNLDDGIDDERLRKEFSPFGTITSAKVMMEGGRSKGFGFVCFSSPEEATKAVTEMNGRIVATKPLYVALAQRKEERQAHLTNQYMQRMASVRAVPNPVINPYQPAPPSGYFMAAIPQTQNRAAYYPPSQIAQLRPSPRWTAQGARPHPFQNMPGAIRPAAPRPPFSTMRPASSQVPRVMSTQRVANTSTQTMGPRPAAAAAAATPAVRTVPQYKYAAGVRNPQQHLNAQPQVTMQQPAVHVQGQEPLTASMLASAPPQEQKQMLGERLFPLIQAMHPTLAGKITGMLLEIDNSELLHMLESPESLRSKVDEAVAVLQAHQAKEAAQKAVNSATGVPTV
# CSC inhib – cancer stem cell inhibition | cancer stem cell-like cells viability, luminescence | inhibition, % at 7.5 µM | actives 1.1% (n = 300,000) | AID 2717;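 active means mean at 75% or more and at least half the replicates too; inconclusive means mean and replicates disagree; tested in HMLE shEcad cells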;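 further: 0% = median of negative and 100% = median of positive control wells; the first replicate is given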
# HIV Env fusion – inhibitors of HIV Env-mediated cell fusion; HeLa-JRFL Env/CEM21 cell fusion, luciferase; actives 1.1% (n = 360,000); AID 651610; inhibition, % at 12.3 µM;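 active means mean replicate inhibition score of at least 50 and every replicate individually at or above 50; inconclusive means only one of the two criteria met; inactive means mean below 50 and not all replicates reaching 50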;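 further: 0% = plate neutral controls and 100% = maraviroc near 300 nM; one replicate is shown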
# eIF4H inh retest – further read-out of eIF4H inh, marked with its call; inhibition, %; compound at 20 µM; confirmation average;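 mean of two retest wells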
# PABP FP inh retest – also measured in PABP FP inh; calls as there; inhibition, %; compound at 20 µM; confirmation repeats;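 mean of two retest wells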
# MT1-MMP act inh RFP – further read-out of MT1-MMP act inh, marked with its call; RFP signal change, %; measured here: RFP expression control read;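 0 = vehicle wells; hits needed this value within 50% of zero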
# * = called active by the depositor; i = inactive; ? = inconclusive; . = not tested or not shown.
SMILES,UUG fidelity,Rce1 inhib,eIF4H inh,MT1-MMP act inh,MT1-MMP act inh RFP,PABP FP inh,CSC inhib,HIV Env fusion,others
Cc1nnc(NC(=O)CSc2nc(C(C)C)nc3ccccc23)s1,-17.7,i,-3.9,-1.4,-8.2,-12.3,62.1,.,
COc1ccc(-c2cc(NC=O)c3ncc(-c4ccc(OC)c(OC)c4)n3c2)c(OC)c1,-4.5,.,.,4.8,-0.4,.,.,-26.7,
Cc1n[nH]c(=O)nc1NCc1ccco1,-17.9,i,-7.9,2.9,4.6,6.4,-10.5,.,
COc1ccc(-c2cc(=O)n(-c3nc4ccccc4[nH]3)[nH]2)cc1,-26.4,i,9.0,15.8,-1.7,13.2,104.4*,66.1*,
O=c1c2[nH]c3ccc(F)cc3c2ncn1CCN1CCOCC1,-8.1,i,9.9,1.4,1.9,-4.7,-4.3,.,
O=C1CCCC/C1=C/Nc1ccc(C(=O)O)cc1,8.9,i,0.2,0.7,2.3,8.6,.,.,
COc1ccc(OC)c(/C=C2\Oc3cc(OCC(=O)N4CCC(C(=O)O)CC4)ccc3C2=O)c1,14.2,i,-11.2,-4.6,3.5,9.0,-3.4,.,
CCOc1cc(/C=C/C(=O)OCC(=O)NCC2CCCO2)cc(Cl)c1OC (stereo unspecified),-4.5,.,.,-3.0,3.5,.,17.3,-0.3,
Cc1cc(C)n2nc(SCC(=O)NC(=O)c3ccc(OC(F)F)cc3)nc2n1,-9.6,.,.,2.5,2.8,.,-3.7,.,
CC(NC(=O)c1ccc2c(c1)OCO2)C(c1cccs1)N1CCOCC1 (stereo unspecified),-8.2,i,-4.3,-2.2,0.8,3.7,-9.7,6.4,
CCCOc1ccc(CNC(=O)c2ccc3c(c2)N(CC)CCS3)cc1,9.4,i,-7.7,-2.0,-0.2,1.0,.,.,
O=c1[nH]c(=S)[nH]c2c1CN(Cc1ccc(F)cc1)CC2,-10.9,i,.,1.3,8.8,.,0.6,-1.4,
Cc1c(OCC(=O)N2CCC(C(=O)O)CC2)ccc2c1oc(=O)c1ccccc12,-10.6,i,-18.5,6.7,5.2,-5.2,-1.7,.,
CC(=O)Nc1cccc(-c2csc(N)n2)c1,.,i,-2.5,0.5,1.8,-13.9,13.1,-2.6,
O=C1CC(c2ccccc2)CC(O)=C1C=NCc1ccco1 (stereo unspecified),18.4,i,6.6,-3.3,3.4,3.4,-9.1,.,
O=C(COC(=O)CN1C(=O)c2ccccc2C1=O)Nc1ccc(S(=O)(=O)N2CCCC2)cc1,15.2,i,-2.0,3.1,5.7,2.8,-13.6,-44.7,
COc1ccc(NC(=O)Cc2ccsc2)c(OC)c1,-0.3,i,-2.0,-0.2,2.9,10.9,-9.9,7.0,
COc1ccc(CCN2CC(C(=O)NC3CCOCC3)CCC2=O)cc1 (stereo unspecified),-9.3,i,-1.6,1.1,4.7,1.6,-10.3,-2.3,
CCc1cc(C(=O)OC)c(NC(=O)CC2SC(N)=NC2=O)s1 (stereo unspecified),.,i,-0.4,-3.2,1.9,-3.4,-13.1,-5.0,
COc1ccc(CN2C(=O)C(CC(=O)NCCCN(C)C)CC(C(=O)N3CCOCC3)=C2C)cc1 (stereo unspecified),2.4,.,.,-0.3,3.9,.,.,5.3,
COc1ccc2ccccc2c1C1CC(=O)N2CN(C)CSC2=C1C#N (stereo unspecified),-7.5,i,4.2,-3.6,-1.3,21.7,18.3,7.2,
Cc1cccc2c1CC(C)(C)N=C2C1=C(O)CCCC1=O,-0.5,i,1.4,-1.5,1.2,-0.6,-9.0,.,
O=C(c1cc([N+](=O)[O-])ccc1N1CCOCC1)N1CCN(S(=O)(=O)c2cc(Cl)ccc2Cl)CC1,0.1,i,.,2.2,-3.4,.,-6.3,-2.5,
O=C(NCCc1c[nH]c2ccccc12)C(=O)Nc1cc2c3c(c1)CC(=O)N3CCC2,-0.8,i,.,-0.9,-6.9,.,22.9,-22.1,
C=CCn1c(SC2CCOC2=O)nc2sc(C)c(C)c2c1=O (stereo unspecified),9.2,i,-1.9,0.4,-0.4,6.7,.,29.3,
Nc1nc2n(n1)C(c1cccc(Cl)c1)CC(c1ccc(F)cc1)N2 (stereo unspecified),-19.5,i,-0.1,0.4,2.0,0.6,5.3,13.9,
COc1ccc(C2(C)NC(=O)N(CC(=O)NCC(=O)Nc3ccc(F)c(F)c3F)C2=O)cc1OC (stereo unspecified),-20.0,.,.,0.1,2.0,.,-14.4,3.5,
CC1=C(C(=O)N(C(C)C)C(C)C)CC(CC(=O)NCC2CCCCC2)C(=O)N1Cc1ccc(F)cc1 (stereo unspecified),-0.1,.,.,3.7,-1.9,.,.,14.4,
CC1(C(=O)NS(=O)(=O)Cc2ccccc2)CCN1C(=O)c1ccc(C2CCCCC2)cc1 (stereo unspecified),-4.6,.,.,-1.4,5.0,.,.,-192.2,
Cc1cc(NC(=O)Nc2ccccc2F)ccc1Br,-13.2,i,-5.6,-6.7,-13.0,-10.5,19.7,-86.4,
O=C(O)C1CCC(N2C(=O)C3CCCCC3C2=O)CC1 (stereo unspecified),-5.0,i,-13.0,0.7,0.8,-12.6,0.8,-68.9,
COc1ccc(NS(=O)(=O)c2cc([N+](=O)[O-])ccc2N/N=C\c2c(C)[nH]c3ccccc23)cc1,-7.0,i,9.3,-150.2,-0.4,15.7,-0.9,.,
CCCCNC(=O)N1CCN(S(C)(=O)=O)CC1,.,i,-2.0,-0.7,1.2,-0.7,9.3,-12.6,
COc1ccc(-c2ccc(C(=O)Nc3ccc(Cl)cc3)c3occc23)c(C)c1,-10.1,.,.,-6.6,-16.9,.,.,-1.5,
COc1ccc(-c2cc(C(=O)O)c3ccccc3n2)c(OC)c1,-2.0,i,8.2,4.3,5.8,12.6,-5.7,.,
CC(=O)c1ccc(OCC(=O)OCc2cc(-c3ccco3)on2)cc1,21.2,.,.,5.7,1.4,.,-8.0,0.8,
O=C1COC(c2ccccc2)=CN1Cc1ccccc1,-5.2,i,.,-0.5,1.0,.,5.4,14.2,
Cc1[nH]c2ccc(C(=O)NCC(C)(C)N3CCOCC3)cc2c1C,.,i,1.2,3.8,5.9,6.3,-12.7,-16.1,
CCOC(=O)c1[nH]nc(N)c1NC(=O)c1ccc(Cl)cc1Cl,-15.5,i,1.8,4.5,-0.5,10.9,-13.7,.,
O=C(COC(=O)c1cc(S(=O)(=O)N2CCCCC2)ccc1N1CCOCC1)NC1CCCCC1,8.0,i,-1.2,0.9,4.0,-0.6,-6.3,.,
CCCCCCN1CCN(C2CN(Cc3ccc(C)cc3)S(=O)(=O)C2)CC1 (stereo unspecified),6.2,.,.,0.3,-0.1,.,.,-4.8,
CC(NC(=O)COc1ccccc1)C(=O)NCc1ccc(S(N)(=O)=O)cc1 (stereo unspecified),-3.8,.,.,1.8,5.7,.,-15.9,15.0,
CC(=O)c1nn(-c2cccc(C)c2)cc1C(=O)c1cccc(Br)c1,-16.5,i,.,1.1,-2.7,.,-8.6,12.6,
COc1ccc(-n2c(=S)[nH]c3cc(C(=O)NCCCN4CCCC4=O)ccc3c2=O)cc1OC,-13.1,i,-0.2,-0.3,4.3,4.7,1.0,16.4,
COc1ccc(/C=C/c2c(-c3cccc(C)c3)oc3ccc(-c4ccc5c(c4)OCO5)cc23)cc1,.,i,3.7,.,.,-3.0,-7.1,-39.1,

# Three entries out of the list, sorted by SMILES length, ascending:
SMILES,UUG fidelity,Rce1 inhib,eIF4H inh,MT1-MMP act inh,MT1-MMP act inh RFP,PABP FP inh,CSC inhib,HIV Env fusion,others
O=C(O)C1CCC(N2C(=O)C3CCCCC3C2=O)CC1 (stereo unspecified),-5.0,i,-13.0,0.7,0.8,-12.6,0.8,-68.9,
CCOC(=O)c1[nH]nc(N)c1NC(=O)c1ccc(Cl)cc1Cl,-15.5,i,1.8,4.5,-0.5,10.9,-13.7,.,
CC(=O)c1nn(-c2cccc(C)c2)cc1C(=O)c1cccc(Br)c1,-16.5,i,.,1.1,-2.7,.,-8.6,12.6,

# The list continues.
SMILES,UUG fidelity,Rce1 inhib,eIF4H inh,MT1-MMP act inh,MT1-MMP act inh RFP,PABP FP inh,CSC inhib,HIV Env fusion,others
CCCC1CCC(=NNC(=O)OC(C)(C)C)CC1 (stereo unspecified),.,i,-8.2,-1.3,2.7,-0.7,-2.3,-0.8,
CCS(=O)(=O)C1=NSC2=NC(=O)/C(=C\c3cc(C)n(-c4cccc(OC)c4)c3C)C(=N)N21,.,i,65.8,-3.4,3.6,3.4,9.7,1.1,eIF4H inh retest=-7.1;PABP FP inh retest=9.1
CC(C)=CCC[C@H](C)CC1Cc2[nH]c(=S)[nH]c(=O)c2C(c2ccc(F)cc2)O1 (stereo partly specified),-15.8,.,.,-2.2,-5.5,.,.,10.2,
COc1ccc(C2/C(=C(/O)c3ccc(Br)cc3)C(=O)C(=O)N2C)cc1OC (stereo unspecified),-16.8,i,-0.5,1.7,-1.1,10.8,-4.5,10.7,
CCc1ccc(NC(=O)C(=O)N/N=C(\C)CC(=O)Nc2ccc(OC)cc2)cc1,.,i,3.9,0.8,2.6,17.9,-10.7,4.8,
COc1ccc(CCC(C)NCC2CCCCC2)cc1 (stereo unspecified),-1.9,i,2.7,0.2,0.4,19.7,92.6*,14.8,
Cc1ccccc1-c1nnc(-c2ccccc2)o1,-4.4,i,1.3,-3.8,-1.1,-0.9,-9.8,.,
Cn1nnnc1Sc1ncnc2scc(-c3ccc(Cl)cc3)c12,-2.2,.,.,-3.3,-10.7,.,82.7*,-33.0,
CCC1Oc2ccccc2N(CC(=O)NCCCN2CCCCC2CC)C1=O (stereo unspecified),16.8,i,-0.6,16.1,3.0,2.5,-6.9,.,
CC(=O)N(C(C)=O)c1ncc2c([nH]c3ccccc32)c1C#N,-19.5,.,1.2,-33.0,-17.4,5.9,1.2,.,
CCc1cccc(C)c1NC(=O)CSc1n[nH]c(N)n1,-13.1,.,.,-0.2,0.5,.,-16.1,.,
CCCCC(O)(CCN1CCOCC1)c1ccc(Cl)cc1 (stereo unspecified),-0.8,i,7.9,8.8,2.4,-0.9,-2.5,.,
COc1ccccc1C(=O)NNC(=O)c1sccc1-n1cccc1,-9.6,i,4.8,4.6,5.7,-14.7,-7.2,15.2,
O=C(NCCc1ccccc1)C(c1cccs1)N(C(=O)c1csnn1)C1CC1 (stereo unspecified),-21.5,i,-10.3,-4.6,-1.8,-0.1,-5.6,-71.2,
COc1ccc(-c2nnn(CC(=O)N(CCCN3CCOCC3)C(C(=O)NC3CCCC3)c3ccc(C)o3)n2)cc1 (stereo unspecified),.,i,-13.6,-5.9,0.8,4.1,-12.5,2.8,
COCCn1c(SCC(=O)Nc2ccc3[nH]c(=O)[nH]c3c2)nc2ccccc2c1=O,-16.8,i,16.9,-6.0,-1.5,-2.5,8.3,-3.4,
O=C(COC(=O)c1ccc2ncsc2c1)Nc1ncc(Cl)cc1Cl,.,i,-3.1,-0.5,2.4,12.6,-3.1,-0.9,
CSc1nc2c(c(=O)n1-c1ccc(F)cc1)SCC2,-2.7,i,13.9,-6.0,-5.2,13.7,.,-11.8,
COc1ccc(OCc2cc(C(=O)N3CCCC(O)C3)no2)c2ccccc12 (stereo unspecified),1.8,i,7.7,-2.1,2.5,-2.0,2.8,-32.3,
COc1ccc(-c2nc(/C=C3\C(C)=Nc4ccccc43)c(O)o2)cc1,.,i,?,-3.0,0.2,16.3,7.4,7.3,
